Screens as filed in PubChem BioAssay.
PV pol inh – inhibitors of poliovirus RNA polymerase binding and polymerization. poliovirus polymerase elongation, fluorescence polarization; stronger effect = lower value. P03300. % elongation, % (compound at 16.7 µg/mL). 150,000 tested, 0.66% active; in the data active = % elongation below about 90%; note: some results filed as inactive read as strong as hits
Target sequence (P03300 1749-2209 limits assumed): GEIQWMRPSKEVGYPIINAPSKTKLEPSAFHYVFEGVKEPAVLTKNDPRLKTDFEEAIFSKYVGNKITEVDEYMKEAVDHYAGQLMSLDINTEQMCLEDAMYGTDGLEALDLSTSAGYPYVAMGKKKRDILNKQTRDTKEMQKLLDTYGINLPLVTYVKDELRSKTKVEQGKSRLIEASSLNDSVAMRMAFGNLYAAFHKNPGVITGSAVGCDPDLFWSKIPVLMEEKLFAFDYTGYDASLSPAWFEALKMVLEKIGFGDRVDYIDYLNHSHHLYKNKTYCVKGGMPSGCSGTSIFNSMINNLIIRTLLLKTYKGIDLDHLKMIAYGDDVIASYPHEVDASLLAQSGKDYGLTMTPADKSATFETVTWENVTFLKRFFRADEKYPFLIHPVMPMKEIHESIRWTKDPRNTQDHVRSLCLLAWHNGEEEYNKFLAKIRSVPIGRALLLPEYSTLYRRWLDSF
Mtb MbtI inh – MbtI salicylate synthase inhibition. purified MbtI enzyme, fluorescence intensity read-out. inhibition, %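 (about 17 µg/mL by stock and volumes)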. 100,000 tested, 0.89% active;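 active = above 50% in both replicates, above 80% if mildly self-fluorescent; inactive = the rest, strongly fluorescent compounds included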;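 note: 0% = mean of negative and 100% = mean of positive controls; one replicate is shown; some compounds called inactive have numbers as strong as hits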
Target sequence (P9WFX0 whole entry, looked up): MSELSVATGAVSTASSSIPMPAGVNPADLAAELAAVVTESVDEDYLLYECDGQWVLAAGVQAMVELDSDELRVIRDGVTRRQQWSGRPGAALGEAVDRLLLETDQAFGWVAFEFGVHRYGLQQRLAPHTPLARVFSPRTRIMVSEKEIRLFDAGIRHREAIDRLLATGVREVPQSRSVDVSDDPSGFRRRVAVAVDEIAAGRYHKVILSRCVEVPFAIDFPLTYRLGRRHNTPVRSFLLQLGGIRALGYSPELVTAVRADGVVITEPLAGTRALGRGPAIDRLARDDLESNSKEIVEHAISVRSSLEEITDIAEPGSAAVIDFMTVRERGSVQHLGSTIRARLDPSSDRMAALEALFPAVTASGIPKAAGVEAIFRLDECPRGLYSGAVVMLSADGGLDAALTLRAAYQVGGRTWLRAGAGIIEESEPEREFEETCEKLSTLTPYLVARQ
MenB inh – blocks the Mycobacterium tuberculosis MenB enzyme | P9WNP5 | AID 540299 | MenB enzyme assay, absorbance read-out; some hits fall short of the stated cut | inhibition, %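 (about 12 µg/mL by stock and volumes)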 | 100,000 tested, 0.43% active;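 active = mean of two replicates above 30%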;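 note: 0% = no compound and 100% = wells with inactive enzyme; the first replicate is given; strong numbers were not always called active; inactives centre near -10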
PV pol inh intensity – also measured in PV pol inh; calls as there; % elongation; measured here: total intensity read-out; formula for this scale not given here;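 total fluorescence in place of polarization; lower means less elongation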
* hit, by the source's call; x = no result given; & = joins results of further samples. Outcome played no part in choosing rows; about 1.7% have a hit in one of these screens.

Screens by letter: A = PV pol inh; B = PV pol inh intensity; C = Mtb MbtI inh; D = MenB inh
1. N=C1SC2CS(=O)(=O)CC2N1CCc1ccccc1 (configuration not stated)
  A: 103	B: 102	C: -19	D: -16

2. Cc1sc2ncnc(Oc3ccc(Cl)cc3Cl)c2c1C
  A: 102	B: 101	C: 5	D: x

3. CC1CN(c2ccc(NC(=S)NN)cc2)CC(C)O1 (configuration not stated)
  A: 107	B: 101	C: 2	D: -24

4. O=C(CC1(O)OC(c2ccc(Cl)cc2)=CC1=O)c1ccc(Cl)cc1 (configuration not stated)
  A: 117	B: 117	C: x	D: -22

5. O=C(CN1CCN(c2ccccc2)CC1)NC(=O)Nc1ccc2c(c1)OCCO2
  A: 107	B: 111	C: -23	D: -11

6. CCCN(CCC)C(=O)Cc1c(C)nc2c(-c3ccccc3)c(C)nn2c1C
  A: 103	B: 100	C: 2	D: -19

7. CCCCn1c(=N)n(CC(=O)OC)c2ccccc21
  A: 101	B: 104	C: -5	D: 3

8. C=CCn1c(SCc2nnc(SCc3ccc(F)cc3)n2C)nnc1-c1ccccc1
  A: 104	B: 103	C: -7	D: 8

9. COc1ccc(N2CC(NC(=O)N3CCCC3)CC2=O)cc1 (configuration not stated)
  A: 102	B: 102	C: -10	D: -6

10. Cc1ccc(/C=N/N(C)S(=O)(=O)c2ccc(C)cc2)cc1
  A: 101	B: 106	C: -5	D: -8

11. O=C1NN(c2ccc(Cl)c(Cl)c2)C(=O)/C1=C/C=C/c1ccco1
  A: 101	B: 104	C: 2	D: -21

12. COC(=O)C(F)c1nc2ccccc2c(=O)[nH]1 (configuration not stated)
  A: 100	B: 104	C: 17	D: -27

13. CCNc1nc(NC(C)C)nc(OCCNC(=O)Nc2ccc(Cl)cc2)n1
  A: 103	B: 103	C: 15	D: -9

14. O=C(c1ccc2c(c1)CCO2)N1CCN(C(c2ccccc2)c2ccccc2)CC1
  A: 100	B: 104	C: -4	D: -1

15. Cc1nn(-c2ccc(F)cc2)c(Cl)c1/C=C/C(=O)N1CCNC(=O)C1
  A: x	B: x	C: 18	D: 5

16. CCOC(=O)C(C)Sc1nc2c([nH]c3ccccc32)c(=O)n1-c1ccc(Cl)cc1 (configuration not stated)
  A: 101	B: 107	C: 3	D: -22

17. COC(=O)c1c(C)nsc1NC(=O)Oc1ccccc1
  A: 104	B: 99	C: 3	D: -25

18. CC(Sc1nncn1C)C(=O)NCCC1=CCCCC1 (configuration not stated)
  A: 104	B: 105	C: -6	D: -7

19. CCN1C(=O)c2ccccc2S(=O)(=O)c2ccc(C(=O)NCCCN3CCCCCC3)cc21
  A: 101	B: 103	C: 7	D: -23

20. CCOC(=O)C1C(=O)OC2(CCCC2)C1C(=O)OCC (configuration not stated)
  A: 101	B: 103	C: -7	D: 21

21. CNC(=O)COC(=O)c1ccc(NC(=O)CC#N)cc1
  A: 106	B: 109	C: -5	D: -28

22. C#CCSc1nc(C(OC)OC)cc(=O)[nH]1
  A: 103	B: 95	C: -2	D: -20

23. O=C([O-])C[n+]1cn(CC(=O)O)c2ccccc21
  A: 99	B: 96	C: -10	D: x

24. N#CC(C#N)=C(C#N)c1cc2c([nH]1)CCCC2
  A: 110	B: 132	C: 28	D: -75

25. O=C(NNc1ccccc1C(F)(F)F)C1CCCC1
  A: 99	B: 102	C: 15	D: -14

An excerpt from above with just PV pol inh intensity and Mtb MbtI inh:
cpd	SMILES	PV pol inh intensity	Mtb MbtI inh
19	CCN1C(=O)c2ccccc2S(=O)(=O)c2ccc(C(=O)NCCCN3CCCCCC3)cc21	103	7
20	CCOC(=O)C1C(=O)OC2(CCCC2)C1C(=O)OCC (configuration not stated)	103	-7
21	CNC(=O)COC(=O)c1ccc(NC(=O)CC#N)cc1	109	-5
22	C#CCSc1nc(C(OC)OC)cc(=O)[nH]1	95	-2
23	O=C([O-])C[n+]1cn(CC(=O)O)c2ccccc21	96	-10

(more compounds)
Screens by letter: A = PV pol inh; B = PV pol inh intensity; C = Mtb MbtI inh; D = MenB inh
26. COCCn1c(SCC(=O)Nc2ccccc2)nc2ccccc21
  A: 102	B: 108	C: -11	D: -20

27. CN(C)/C=c1\s/c(=C/C(=O)c2cccs2)[nH]c1=O
  A: 50	B: 238	C: 28	D: -164

28. Cc1ccc(/C=C/C(=O)O)cc1S(=O)(=O)N1CCC(C(=O)O)CC1
  A: 102	B: 102	C: 2	D: -16

29. NC1CCC(c2ccccc2)CC1 (configuration not stated)
  A: 101	B: 98	C: -11	D: -18

30. CC1=Nc2ccc(C)cc2/C1=C\c1c(N)n2nc(N3CCOCC3)sc2nc1=O
  A: 99	B: 104	C: -4	D: -24

31. N#Cc1c(O)c(C=C2C=CC(=O)C=C2)n2ccccc12
  A: 97	B: 105	C: -4	D: -9

32. Cc1cc(C)c(NC(=O)CSc2nncn3c2cc2occc23)c(C)c1
  A: 98	B: 108	C: 30	D: -33

33. Cc1ccc(-c2csc3ncn(Cc4cc(=O)n5ccsc5n4)c(=O)c23)s1
  A: 103	B: 99	C: -4	D: -6

34. CCOC(=O)N1CCC(c2nnc(-c3ccc(Cl)cc3Cl)o2)CC1
  A: 99	B: 97	C: 3	D: 13

35. COc1cc2c(cc1OC)CN(C(C)C(=O)NC(C)(C#N)C(C)C)CC2 (configuration not stated)
  A: 104	B: 101	C: -11	D: -8

36. CC(C)n1[nH]c(=O)c2c1NC(=O)CSC21CCCCC1
  A: 103	B: 102	C: -25	D: -33

37. CC(C)CCNC(=O)c1nnc(-c2ccccc2)o1
  A: 104	B: 97	C: -11	D: -20

38. COc1ccc(-c2nnc(SCC#N)o2)cc1
  A: 102	B: 101	C: 7	D: 3

39. Cc1cc(C)c2c(n1)sc1c(=O)n(CC(=O)c3ccccc3)cnc12
  A: 103	B: 105	C: 3	D: 12

40. CCOC(=O)c1[nH]c(C(=O)O)c(CCC(=O)OC)c1C
  A: 102	B: 104	C: 6	D: 7

41. COC(=O)NN1C(=O)c2ccccc2C1=O
  A: 99	B: 101	C: -9	D: -10

42. CC(=O)Nc1ccc(OCC(O)CNC(C)C)cc1 (configuration not stated)
  A: 99	B: 101	C: -5	D: -11

43. Cc1ccc(CCNC(=O)C(C)c2c(C)n[nH]c2C)cc1 (configuration not stated)
  A: 100	B: 103	C: -8	D: 7

44. CC12CC[C@H]3[C@@H](CCC4(O)C[C@H](O)CCC34/C=N/Nc3ccccc3)C1(O)CCC2C1=CC(=O)OC1 (some centres not stated)
  A: 99	B: 101	C: 8	D: -24

45. CNC(=S)Nc1cnn(Cc2cccc3ccccc23)c1
  A: 104	B: 99	C: 17	D: -23

46. N#CCc1nc(=O)c2ccccc2s1
  A: 102	B: 112	C: 47	D: -21

47. COC(=O)c1ccc(COc2cc(C)cc(C)c2)o1
  A: 104	B: 108	C: -211	D: -5

48. O=C(Oc1cccc2cccnc12)N1CCCCCC1
  A: 100	B: 107	C: 45	D: -28

49. CCOC(=O)c1cnn(-c2nc3ccccc3n2C)c1/N=C/N(C)C
  A: 103	B: 91	C: -11	D: -17

50. N/N=C1\CCCc2c1[nH]c1ccc(C(=O)NN)cc21
  A: 105	B: 109	C: 6	D: -35

entry	SMILES	PV pol inh	PV pol inh intensity	Mtb MbtI inh	MenB inh
51	O=C1CN(CC(=O)N2CCN(c3ccc(F)cc3)CC2)c2ccccc2O1	103	104	4	-71
52	N#Cc1cccc(C(=O)OCc2cc(=O)oc3cc(O)ccc23)c1	103	105	-22	-11
53	CCOC(=O)c1cc(O)c(C(=O)OCC)s1	94	99	-3	-19
54	O=S(=O)(Nc1ccc2oc3c(c2c1)CCCC3)c1ccc(F)cc1	99	99	-2	-9
55	CCNC(=O)NCc1nc(-c2ccccc2)no1	104	103	-20	-3
56	O=S(=O)(NN1CCOCC1)c1cccc2cccnc12	101	103	9	12
57	CCOc1cc(CN2CCN(CC(=O)N3CC(C)CC(C)C3)CC2)cc(Br)c1OC (configuration not stated)	99	105	-7	-4
58	COC(=O)/C(C#N)=C\C=C\c1ccccc1	103	110	8	-9
59	CCCc1c(C(=O)NNc2ccc(C)cc2)cnn1-c1ccccc1	101	103	7	-25
60	N/N=C(\C(=O)O)c1ccccc1N	99	89	17	-32
61	O=C1CCCN=C(Nc2ccc(F)c(Cl)c2)S1	104	105	-3	-2
62	COc1ccc2c(c1)[nH]c1c(C)nccc12	101&101	101&99	x	-7&-5
63	CC(=O)Nc1ccc(-c2nn[nH]n2)cc1	102	100	-2	8
64	CC1Cn2c(COc3ccccc3)nnc2S1 (configuration not stated)	104	94	x	-23
65	CN(C)CC1CCCCC1O (configuration not stated)	102	97	5	x
66	CC(C)NC(=S)Nc1cccc2cnccc12	102	113	19	-13
67	CC(C)N(C(=O)Cn1ccnc1)c1ccccc1	103	102	1	-49
68	CC12CCCCC1(O)N(O)C(C(=O)c1ccccc1)=N2 (configuration not stated)	101	101	-6	-12
69	CCn1cc(CN(C)C(=S)Nc2ccc(OC)c(OC)c2)c(C)n1	103	104	-6	-4
70	C=CCN(CC(=O)Nc1ccc2c(c1)OCO2)S(=O)(=O)c1ccccc1F	111	111	-6	-11

Four entries picked at random from the list so far, as already listed:
entry	SMILES	PV pol inh	PV pol inh intensity	Mtb MbtI inh	MenB inh
56	O=S(=O)(NN1CCOCC1)c1cccc2cccnc12	101	103	9	12
59	CCCc1c(C(=O)NNc2ccc(C)cc2)cnn1-c1ccccc1	101	103	7	-25
55	CCNC(=O)NCc1nc(-c2ccccc2)no1	104	103	-20	-3
57	CCOc1cc(CN2CCN(CC(=O)N3CC(C)CC(C)C3)CC2)cc(Br)c1OC (configuration not stated)	99	105	-7	-4

(list continues)
entry	SMILES	PV pol inh	PV pol inh intensity	Mtb MbtI inh	MenB inh
71	NC(=O)C1CCN(C(=O)CCc2nnc3n(Cc4ccccc4)c(=O)c4ccccc4n23)CC1	102	109	-2	4
72	COc1ccc(-c2nnc(SCC(=O)NCC(F)(F)F)o2)cc1	110	96	17	11
73	Cc1ccc(Nc2c(-c3ccccc3)nc3ccccn23)cc1	103	104	-28	-15
74	COC(=O)C(C)Sc1ncc(-c2ccccc2)nn1 (configuration not stated)	101	106	6	-12
75	CCCOc1ccc(N)cc1N	100	134	17	-33
76	O=C(C1CCCCC1)N1CCN(C(=O)C2CCCCC2)CC1	101	104	-8	-14
77	O=C(CC(C(=O)O)C1CCCO1)NC1CCCCC1 (configuration not stated)	100	101	2	9
78	Oc1ccc2ccccc2c1Sc1nnnn1-c1ccccc1	102	111	-3	-10
79	COc1cccc(-n2nc(C(=O)N3CCC(C(N)=O)CC3)c3ccccc3c2=O)c1	100	103	26	-8
80	CN(C)S(=O)(=O)c1cccc(C(=O)N2CCC(C(N)=O)CC2)c1	103	97	5	-24
81	CS(=O)(=O)Nc1ccc(/C(N)=N/OC(=O)c2ccc(Cl)cc2)cc1	102	96	-3	-20
82	Cc1ccccc1N1CC23C=CC(O2)C(C(=O)OC(C)C)C3C1=O (configuration not stated)	101	105	-14	-28
83	O=C(NCC1CC1)Nc1cccs1	101	102	30	8
84	C=CCN(C(=O)c1cc2c(=O)oc3ccc(C)cc3c2s1)c1ccccc1	103	102	-4	-17
85	COc1ccc2cc3c(N)nn(C(=O)CN4CCOCC4)c3nc2c1	101	103	-3	-15
86	O=S(=O)(c1ccc(Cl)cc1)N1CCCC1c1cccs1 (configuration not stated)	103	97	6	-8
87	CCc1ccc2c(O)c3c(cc2c1C(=O)OC)C(=O)c1c(O)ccc(O)c1C3=O	93	112	-7	6
88	CCOC(=O)c1oc2ccc(C=NC(C)(C)C)c(Cl)c2c1C	105	106	x	9
89	CCCCC(CC)C(=O)Nc1ccc(C#N)cc1 (configuration not stated)	105	108	x	-7
90	Cc1cccc(N2CCN(CCNC(=O)C3CCN(c4nc5cccnc5s4)CC3)CC2)c1C	100	101	7	-5
91	CN1CCC(N(C)CC(O)COC2CCCc3ccccc32)CC1 (configuration not stated)	102	105	-21	-13
92	Cc1onc(-c2ccccc2Cl)c1C(=O)NCC1CCCO1 (configuration not stated)	103	106	-3	x

Single records, from the list above. Screens in order: PV pol inh	PV pol inh intensity	Mtb MbtI inh	MenB inh
`Cc1ccc(Nc2c(-c3ccccc3)nc3ccccn23)cc1` in the list: 103	104	-28	-15
`CCc1ccc2c(O)c3c(cc2c1C(=O)OC)C(=O)c1c(O)ccc(O)c1C3=O` in the list: 93	112	-7	6
